Screening results: PubChem BioAssay, National Center for Advancing Translational Sciences (NCATS)
PI5P4K alpha inh: qHTS for Inhibitors of phosphatidylinositol 5-phosphate 4-kinase (PI5P4K). Phosphatidylinositol 5-phosphate 4-kinase type-2 alpha (Homo sapiens), P48426. hit rate 1.2% among 330,000. max response, %. AID 652105, 2013. PI5P4Kalpha enzyme, ADP-Glo luminescence, 60 min; active compounds read low; active = max response of -50% or lower; inconclusive = between -30% and -50%; inactive = -30% or higher; note: value at the top dose of about 77 µM; % is set by controls: 0 for no effect and ±100 for the full control effect
Target sequence (P48426 whole entry, looked up): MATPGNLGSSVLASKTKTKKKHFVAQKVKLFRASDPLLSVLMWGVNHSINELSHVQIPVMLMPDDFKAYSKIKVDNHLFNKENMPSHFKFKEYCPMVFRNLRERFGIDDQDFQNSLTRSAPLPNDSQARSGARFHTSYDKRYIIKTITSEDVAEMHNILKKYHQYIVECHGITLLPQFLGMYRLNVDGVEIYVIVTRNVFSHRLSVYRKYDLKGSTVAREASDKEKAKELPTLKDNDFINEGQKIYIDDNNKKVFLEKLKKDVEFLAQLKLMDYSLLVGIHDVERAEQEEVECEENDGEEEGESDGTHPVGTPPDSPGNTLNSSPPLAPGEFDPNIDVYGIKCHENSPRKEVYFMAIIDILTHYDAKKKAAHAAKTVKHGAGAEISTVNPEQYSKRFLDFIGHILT
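ADP-Glo luminescence end-point after a 60 min room-temperature kinase reaction. PI5P4Kalpha and substrate in HEPES pH 7.4 buffer with EGTA, 0.1% CHAPS and 5% DMSO; ATP at 5 microM final.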
EPAC1 ag: qHTS for Agonist of cAMP-regulated guanine nucleotide exchange factor 3 (EPAC1): primary screen | Rap guanine nucleotide exchange factor 3 (Homo sapiens), O95398 | EPAC1 agonist qHTS, biochemical assay; response scale: 100% = response to 6.5 mM cAMP | Potency, µM (top dose mostly 154 µM), for the others: at the highest dose activation, most hits filed as activators | hit rate 0.073% among 360,000; note: potency is the fitted concentration of half-maximal effect; nearly all actives have a fitted effect of over 60% in size
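Read-out is the fluorescence drop as BODIPY-GDP leaves Rap1B (480 nm excitation, 540 nm emission), recorded every 5 minutes over 30 minutes. Reactions held 100 nM EPAC1, 250 nM Rap1B–BODIPY-GDP and 50 uM GDP, with 6.5 mM cAMP setting full activation.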
IL-2 act: qHTS of IL-2 Activators; IL-2 activation reporter assay, cell-based qHTS; stimulated with anti-CD3/CD4/CD28 beads; in transgenic mouse T cells; activation, % (series mostly up to about 46 µM); hit rate 0.065% among 360,000; in the data active = activation above about 50%; inconclusive = mostly about 30% to 49%; note: 0% is about no effect
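EGFP and DsRed fluorescence is measured by plate cytometry in unstimulated transgenic mouse T cells exposed to compound for 60 minutes, then stimulated 18 hours at 37 degrees C with anti-CD3/anti-CD4 beads plus anti-CD28.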
CCT chaperon mod: High-Throughput Screening for Modulators of Cytosolic Chaperonin Activity | AID 651819, 2012 | purified chaperonin ATPase assay, HTRF ADP detection, 30 min | hit rate 0.3% among 360,000 | activity change, % (no concentration beside the values), hits read low; in the data active = activity change below about -30%; note: % is set by controls: 0 for no effect and ±100 for the full control effect
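ATPase activity: ADP formed was measured by HTRF Transcreener (665/615 nm ratio) after 30 min at 37 deg C with 10 uM ATP. Compounds screened at one 76 uM concentration against 40 or 20 nM TRiC in Tris pH 7.4/KCl/MgCl2/DTT buffer.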
EPAC2 agonist: qHTS for Agonist of cAMP-regulated guanine nucleotide exchange factor 4 (EPAC2): primary screen; EPAC2 activation, biochemical qHTS; response scale: 100% = 6.5 mM cAMP response; Potency, µM (titrated, usually from 154 µM), for inactives: at the top dose activation, most hits filed as activators; hit rate 0.079% among 360,000; note: potency is the fitted concentration of half-maximal effect; nearly all actives have a fitted effect of over 50% in size
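Setup: EPAC2 100 nM, labeled Rap1B complex 250 nM, free GDP 50 uM. Compound titrations pinned in, brief spin, 5 min room temperature incubation. Kinetic fluorescence read over 30 min, normalized to 6.5 mM cAMP.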
PLK1 PBD inh: qHTS for Inhibitors of PLK1-PDB (polo-like kinase 1 - polo-box domain): Primary Screen. Plk1 PBD binding of FITC phosphopeptide, fluorescence polarization. Potency, µM, for the others: max response, negative = inhibition, hits mostly inhibitors. hit rate 2.8% among 360,000; note: potency is the fitted concentration of half-maximal effect; series mostly up to about 57 µM; % is set by controls: 0 for no effect and ±100 for the full control effect; nearly all actives have a fitted effect of over 65% in size
Target sequence (P53350 whole entry, looked up, the tested form may be a part): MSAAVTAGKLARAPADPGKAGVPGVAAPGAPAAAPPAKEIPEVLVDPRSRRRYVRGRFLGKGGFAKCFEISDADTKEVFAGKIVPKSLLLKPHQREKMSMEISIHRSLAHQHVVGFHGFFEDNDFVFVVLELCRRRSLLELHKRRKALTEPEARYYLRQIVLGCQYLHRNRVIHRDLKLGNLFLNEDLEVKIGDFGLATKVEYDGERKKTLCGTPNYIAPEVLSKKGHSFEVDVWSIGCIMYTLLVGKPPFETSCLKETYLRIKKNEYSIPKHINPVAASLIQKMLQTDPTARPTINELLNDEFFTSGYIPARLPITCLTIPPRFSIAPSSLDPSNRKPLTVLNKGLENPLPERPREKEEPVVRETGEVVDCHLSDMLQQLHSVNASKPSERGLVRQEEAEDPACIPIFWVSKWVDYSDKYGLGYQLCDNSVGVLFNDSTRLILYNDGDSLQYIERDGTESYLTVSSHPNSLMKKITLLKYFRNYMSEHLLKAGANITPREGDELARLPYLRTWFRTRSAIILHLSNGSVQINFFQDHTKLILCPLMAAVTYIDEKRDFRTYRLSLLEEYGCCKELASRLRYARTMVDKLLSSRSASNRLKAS
EPAC1 antagonist: qHTS for Antagonist of cAMP-regulated guanine nucleotide exchange factor 3 (EPAC1): primary screen; Rap guanine nucleotide exchange factor 3 (Homo sapiens), O95398; EPAC1 GEF assay, Rap1b-BODIPY-GDP exchange fluorescence; Potency, µM (top dose mostly 115 µM), for inactives: top-dose activity change, negative = inhibition, actives largely listed as inhibitors; hit rate 0.14% among 360,000;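 note: potency is the fitted concentration of half-maximal effect; plate controls were vehicle for no effect and positive control for full effect; nearly all actives have a fitted effect of over 50% in size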
An asterisk follows results filed as active; u = inconclusive; x = not tested or not shown; [ ] = another dose, or the depositor's remark. Unless noted, calls come from the whole dose curve; as a rule, active = well fitted curve in the direction sought with a large enough effect; inconclusive = small, poorly fitted or top-dose-only effect, or another doubt; inactive = no such curve, though single readings can be large; an effect the other way counts as inactive or inconclusive. A portion of the library. The share of hits here may be higher or lower than overall.

#1 Cc1ccc2cc(/C=C(\C#N)C(N)=O)c(N3CCCCC3)nc2c1
#2 Cc1ccc(NC(=O)CN2C(=O)N/C(=C\c3ccco3)C2=O)cc1
#3 Cc1ccc(F)cc1C(=O)N1CCCC(C)(C(=O)NS(=O)(=O)C2CC2)C1 (stereo unspecified)
#4 CCOc1ccc(C(=O)C(c2ccccc2)N2CCOCC2)cc1 (stereo unspecified)
#5 COc1cc(/C=C/C(=O)OCC(=O)N2CCN(S(=O)(=O)c3ccc(C)cc3C)CC2)cc(Cl)c1OC
#6 Nc1nc2c(c(=O)[nH]1)C(c1cccc3ccccc13)C1=C(N2)c2ccccc2C1=O (stereo unspecified)

Assay by compound	1	2	3	4	5	6
PI5P4K alpha inh	0	x	8	5	0	-19
EPAC1 ag	7%	-15%	4%	1%	4%	-1%
IL-2 act	-0.1	0.7	2.1	0.8	-3.7	7.6
CCT chaperon mod	-1.2	x	1.2	-5.0	-1.8	-0.5
EPAC2 agonist	-70%[inhibitor]	6%	2%	7%	7%	-1%
PLK1 PBD inh	24%	x	0%	-8%	5%	u
EPAC1 antagonist	-7%	-16%	-1%	3%	4%	-10%

#7 Cn1c(CC(=O)NNC(=O)c2ccc(Cl)nc2)nc2ccccc21
#8 CC(=O)Nc1ccc(S(=O)(=O)NNc2cccc(C)c2)cc1
#9 CCN1C(=O)/C(=c2\sc3nc(=O)c(Cc4ccccc4)nn3c2=O)c2ccccc21
#10 COc1ccc(-c2cc(-c3nnc(-c4ccncc4)o3)c3ccccc3n2)cc1
#11 CN(CC(=O)Nc1cc(S(=O)(=O)N2CCOCC2)ccc1Cl)C1CCS(=O)(=O)C1 (stereo unspecified)
#12 Cc1cc(-c2cc(NC=O)c3ncc(-c4cccc(C(=O)NCCN(C)C)c4)n3c2)cc(C)c1O

Assay by compound	7	8	9	10	11	12
PI5P4K alpha inh	-4	u	-20	-2	5	-1
EPAC1 ag	-1%	3%	-6%	-8%	-5%	-2%
IL-2 act	0.8	1.1	1.2	-0.1	-1.1	-0.7
CCT chaperon mod	1.1	0.5	-10	-3.2	1.8	-0.5
EPAC2 agonist	-3%	2%	2%	-5%	5%	3%
PLK1 PBD inh	3%	12µM*	u	-4%	-3%	-10%
EPAC1 antagonist	2%	24%	3%	4%	-3%	-7%

#13 CCOC(=O)Cc1csc(SCc2cc(=O)oc3cc(O)ccc23)n1
#14 CCc1cc2c(NCCO)ncnc2s1
#15 CCOc1cc(/C=C(\CC(=O)O)c2nc3ccccc3s2)ccc1OC
#16 Cc1cc(C)nc(N2CCCC(C(=O)Nc3nc4ccc(S(C)(=O)=O)cc4s3)C2)n1 (stereo unspecified)
#17 Cc1cc(NC(=O)c2noc3c2CCCC3)no1
#18 CCOC(=O)N1CCN(C(=O)Cc2ccc(C)cc2)CC1

Assay by compound	13	14	15	16	17	18
PI5P4K alpha inh	-12	0	-4	x	x	x
EPAC1 ag	8%	-1%	3%	9%	0%	12%
IL-2 act	-0.7	-0.7	0.3	-1.0	-2.4	0.1
CCT chaperon mod	1.9	-0.3	-3.5	-1.5	2.6	-1.7
EPAC2 agonist	-1%	-7%	0%	14%	7%	13%
PLK1 PBD inh	-7%	2%	-2%	-10%	0%	-10%
EPAC1 antagonist	-3%	5%	7%	-28%	11%	9%

#19 Cc1cc2c(c(=O)n1CCN(C)C)C(c1ccncc1)C(C#N)=C(N)O2 (stereo unspecified)
#20 CCn1c(SCC(=O)NCc2ccco2)nc2c(c1=O)SC(C)C2 (stereo unspecified)
#21 COc1ccc2nc(NCc3ccccc3)[nH]c2c1
#22 CC1CCC(N2CCN(S(=O)(=O)Cc3ccccc3)CC2)CC1 (stereo unspecified)
#23 CN(C)CCC(=O)c1ccc(Cl)cc1
#24 CCc1ccc(CN2CCC(CO)(CC3CCCCO3)CC2)o1 (stereo unspecified)

Assay by compound	19	20	21	22	23	24
PI5P4K alpha inh	1	-16	x	-1	2	-4
EPAC1 ag	11%	2%	1%	2%	3%	-4%
IL-2 act	-3.8	-1.9	0.4	0.0	-1.9	-0.3
CCT chaperon mod	-2.2	1.6	-0.7	-1.4	1.9	-0.7
EPAC2 agonist	6%	6%	5%	3%	-10%	1%
PLK1 PBD inh	-9%	-6%	-4%	4%	4.2µM*	-2%
EPAC1 antagonist	-7%	-18%	-12%	-5%	-4%	0%

#25 Cc1cc(C(=O)CCC(=O)N2CCN(c3ccccc3O)CC2)c(C)s1
#26 O=C(O)C/C(=C\c1ccc2c(c1)OCO2)c1nc2ccccc2s1
#27 CC(=O)c1ccc(-c2cnc3c(NC=O)cc(-c4ccc(N5CCN(C)CC5)cc4)cn23)cc1
#28 O=C(O)CC/C(=C/c1cccc(NC(=O)c2ccccc2Cl)c1)c1nc2ccccc2s1
#29 CC(=O)Nc1cc(-c2ccc(N3CCN(C)CC3)cc2)cn2c(-c3cccc(C(C)=O)c3)cnc12
#30 Cc1ccc(/C=C2/NC(=O)N(Cc3ccccc3F)C2=O)o1

Assay by compound	25	26	27	28	29	30
PI5P4K alpha inh	-24	5	-51*	u	-3	-14
EPAC1 ag	0%	1%	-2%	u	-3%	-2%
IL-2 act	0.9	1.3	-0.1	0.3	-0.1	-3.0
CCT chaperon mod	-0.3	-2.8	-1.5	-0.9	-3.1	0.4
EPAC2 agonist	4%	1%	2%	6%	0%	8%
PLK1 PBD inh	-3%	-17%	-9%	u	-8%	-3%
EPAC1 antagonist	-2%	-11%	15%	u	14%	5%

#31 CCCOc1ccc(C2C3=C(Nc4nc(N)[nH]c(=O)c42)c2ccccc2C3=O)cc1 (stereo unspecified)
#32 C/C(=N\N=C1\NC(=O)CC(C(=O)O)S1)c1cccs1 (stereo unspecified)
#33 CC(=O)OCC1=C(C(=O)O)N2C(=O)[C@@H](NC(=O)Cc3ccccc3)[C@H]2SC1
#34 N#Cc1cc2c(nc1SCC(=O)Nc1nccs1)CCCCC2
#35 CC(C)(C)c1cc(Cl)ccc1OCCOCCN1CCCC1
#36 CN(C)CCCNc1cn[nH]c(=O)c1Cl

Assay by compound	31	32	33	34	35	36
PI5P4K alpha inh	u	x	8	x	1	x
EPAC1 ag	2%	8%	-8%	-8%	-17%	0%
IL-2 act	-0.2	-1.0	-1.8	-4.2	-4.3	-2.4
CCT chaperon mod	1.5	0.2	0.2	-1.2	-1.9	1.6
EPAC2 agonist	8%	4%	11%	3%	4%	0%
PLK1 PBD inh	-15%	-1%	0%	-8%	-10%	1%
EPAC1 antagonist	-14%	1%	-10%	7%	0%	20%

#37 CCOc1ccccc1NC(=O)CSc1nc2nc(-c3cccs3)cc(C(F)(F)F)c2c(=O)[nH]1
#38 COc1ccc(-c2cc(NC=O)c3ncc(-c4cccc(C(=O)NCCN(C)C)c4)n3c2)cn1
#39 COc1cc(/C=C(\C#N)c2nc3ccccc3[nH]2)c([N+](=O)[O-])cc1OCc1ccccc1
#40 O=C(O)C/C(=C\c1cc(Cl)c2c(c1)OCO2)c1nc2ccccc2s1
#41 CCCOc1ccc(C(=O)CCCC(=O)c2ccc(OCCC)cc2)cc1
#42 Cc1nnc(SCC2=C(C(=O)O)N3C(=O)C(NC(=O)COc4ccc(F)cc4)C3SC2)s1 (stereo unspecified)

Assay by compound	37	38	39	40	41	42
PI5P4K alpha inh	u	7	-17	u	-4	-12
EPAC1 ag	-12%	-2%	1%	-7%	11%	-3%
IL-2 act	0.0	0.2	0.7	0.2	-0.2	0.7
CCT chaperon mod	-0.5	2.0	-3.5	-1.1	-1.5	-6.1
EPAC2 agonist	-6%	3%	6%	-23%	2%	0%
PLK1 PBD inh	21µM*	-5%	4%	u	6%	u
EPAC1 antagonist	-14%	5%	4%	u	-6%	0%

#43 O=C(OCC(=O)N1CCN(S(=O)(=O)c2ccc(Cl)cc2)CC1)C1CCC1
#44 CCOc1cc(/C=C2/NC(=O)N(CC(=O)Nc3cccc(C)c3)C2=O)ccc1O
#45 O=C(COc1ccc2ccccc2c1)N1CCN(C(=O)c2ccc([N+](=O)[O-])cc2)CC1
#46 CCc1cc2c(NCC(=O)O)ncnc2s1
#47 Cc1cccc(Nc2nc(N)c([N+](=O)[O-])c(NCc3ccco3)n2)c1
#48 Cc1ccsc1S(=O)(=O)N1CCC(CO)(CC2CCCCO2)CC1 (stereo unspecified)

Assay by compound	43	44	45	46	47	48
PI5P4K alpha inh	2	0	1	u	-27	0
EPAC1 ag	12%	4%	4%	-2%	6%	3%
IL-2 act	1.7	0.9	-0.4	0.5	-3.1	-1.9
CCT chaperon mod	-3.3	-4.1	-1.9	-2.2	-0.9	1.5
EPAC2 agonist	3%	-8%	6%	1%	7%	8%
PLK1 PBD inh	-5%	-1%	-6%	-3%	-2%	-4%
EPAC1 antagonist	3%	6%	4%	12%	u	-27%

#49 Cc1cc(C)nc(Sc2ccc(/C=C(\C#N)C(=O)Nc3ccccc3)o2)n1
#50 CCCCn1c(SCC(=O)NCc2ccco2)nnc1-c1ccco1
#51 CCOC(=O)N1CCN(C(=O)CSc2ncccn2)CC1
#52 CCc1ccc(NC(=O)c2cc(C)on2)cc1

Assay by compound	49	50	51	52
PI5P4K alpha inh	x	x	x	x
EPAC1 ag	4%	10%	-2%	14%
IL-2 act	-2.3	0.6	-1.9	-3.6
CCT chaperon mod	1.5	1.2	2.7	-3.9
EPAC2 agonist	9%	-2%	-1%	5%
PLK1 PBD inh	-2%	0%	-3%	-16%
EPAC1 antagonist	7%	-4%	-2%	1%

In the list so far, six have an NH in an aromatic ring.
#6 Nc1nc2c(c(=O)[nH]1)C(c1cccc3ccccc13)C1=C(N2)c2ccccc2C1=O (stereo unspecified)
#21 COc1ccc2nc(NCc3ccccc3)[nH]c2c1
#31 CCCOc1ccc(C2C3=C(Nc4nc(N)[nH]c(=O)c42)c2ccccc2C3=O)cc1 (stereo unspecified)
#36 CN(C)CCCNc1cn[nH]c(=O)c1Cl
#37 CCOc1ccccc1NC(=O)CSc1nc2nc(-c3cccs3)cc(C(F)(F)F)c2c(=O)[nH]1
#39 COc1cc(/C=C(\C#N)c2nc3ccccc3[nH]2)c([N+](=O)[O-])cc1OCc1ccccc1

Assay by compound	6	21	31	36	37	39
PI5P4K alpha inh	-19	x	u	x	u	-17
EPAC1 ag	-1%	1%	2%	0%	-12%	1%
IL-2 act	7.6	0.4	-0.2	-2.4	0.0	0.7
CCT chaperon mod	-0.5	-0.7	1.5	1.6	-0.5	-3.5
EPAC2 agonist	-1%	5%	8%	0%	-6%	6%
PLK1 PBD inh	u	-4%	-15%	1%	21µM*	4%
EPAC1 antagonist	-10%	-12%	-14%	20%	-14%	4%
